ugtP null kill = growth inhibition of ugtP-null S. aureus, primary screen, RN4220 ugtP deletion, OD600; growth inhibition, % (no concentration beside the values); 16 h; some inactives read as strong as hits; 330,000 compounds, 0.54% hits; AID 1259309, 2017;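 active means z-score under -3 and OD600 up to 0.15 on both plates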;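 further: plate controls were untreated wells for no effect and antibiotic for full effect; wells of about 80 µL received 100 nL stock; the first replicate is given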
Mtb hypoxia rep = PubChem AID 1159583; M. tuberculosis hypoxia-regulated fluorescent reporter, fluorescence; fluorescence inhibition, % (no concentration beside the values); 300,000 compounds, 0.1% hits;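 active means 35 to 45% if threefold the growth effect, above 45% if 1.5-fold the growth effect; inactive means the rest, general growth blockers included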;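 further: wells of about 50 µL received 100 nL stock; 0% = vehicle wells and 100% = reference inhibitor wells; whole bacteria with a GFP reporter of the hypoxia response; strong numbers were not always called active; many hits fall short of the cut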
BJeLR lethal = MLPCN primary cell-based screen for lethality selective to Ras in HRASV12 cells; AID 1554, 2009; BJeLR (HRASV12) viability, CellTiter-Glo ATP luminescence, 48 h; reference of the scale not given here; 300,000 compounds, 0.17% hits; inhibition, % (no concentration beside the values);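 active means replicate mean above 50%; inconclusive means above 50% but judged a plate artefact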;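 further: 50 nL library stock added to about 25 µL; numbers are from one replicate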
Bead autofluor = flagged as autofluorescent in microsphere protease counterscreen; 360,000 compounds, 3.1% hits; fluorescence intensity (concentration not given with the values); compound autofluorescence counterscreen, microsphere flow cytometry; stronger effect = higher value;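 active means at least 3 SD above the mean of all compounds, about 16000 in these data; inconclusive means too few beads counted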;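 further: 100 nL of 1 mM stock went into each well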
RN4220 kill = growth inhibition of S. aureus RN4220, primary screen, OD600 | 16 h | 330,000 compounds, 0.33% hits | AID 1259311, 2017 | inhibition, % (concentration not given with the values);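 active means z-score of -3 or lower and OD600 up to 0.18 on both plates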;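 further: plate controls were untreated cells for no effect and reference antibiotic for full effect; stock transfer was 100 nL into about 80 µL; one replicate is shown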
PrP UTR inh = inhibition of PrP 5' UTR reporter expression; cell-based PrP 5' UTR mRNA reporter, plate reader; inhibition, % (concentration not given with the values); 340,000 compounds, 0.35% hits; AID 488862, 2010;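 active means every replicate at 50% or more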;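 further: 0 = median of the neutral control wells; tested in H4 reporter cells; numbers are from one replicate; inactives centre near -14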
Mtb hypoxia rep growth = also measured in Mtb hypoxia rep; calls as there; growth inhibition, %; measured here: M. tuberculosis growth (absorbance);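 0% = vehicle and 100% = reference antibiotic; read after six days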
Numbers without * were called inactive; ? = inconclusive; . = no result given; & = joins results of further samples.

SMILES	ugtP null kill	Mtb hypoxia rep	Mtb hypoxia rep growth	BJeLR lethal	Bead autofluor	RN4220 kill	PrP UTR inh
Cc1ccc(NC(=O)C2CCCO2)cc1[N+](=O)[O-] (configuration not stated)	1	8	1	0	10917	6.4	-21
CC(=O)Nc1ccc(NC(=O)CSc2ccc(-c3sc(C)nc3C)nn2)cc1	-9	9	10	1	5249	3.7	-11
COc1ccc(C(=O)N2CC3(CC(c4cccc(NC(=O)COc5ccc(Cl)cc5)c4)=NO3)C[C@@H]2C(N)=O)cc1 (some centres not stated)	.	.	.	-11	4133	.	2
COc1cccc2cc(C(=O)Nc3cccnc3N3CCOCC3)c(=O)oc12	0	-7	-7	0	2383	1.6	-15
O=S(=O)(/N=C(/Nc1nccs1)c1ccc(F)cc1)c1ccccc1	15	13	5	.	3069	3.0	0
Cc1ccc2oc(C(=O)N(C)CCC(O)c3ccccc3)c(C)c2c1 (configuration not stated)	10	17	3	1	3907	5.9	-26
Cc1ccc(C(=O)N2CCCC2)cc1S(=O)(=O)N1CCOCC1	2	6	9	-17	5493	0.4	-15
COc1ccc(OCC(=O)Nc2ccc(N3CCCCC3)cc2)cc1	7	-3	-2	0	2297	3.9	-17
CN(C)c1ccc(C=NNC(=O)c2ccccn2)cc1	7	-10	-6	.	.	-1.1	.
O=C(c1ccc2ccccc2c1)N1CCN(c2ccc(C(F)(F)F)cn2)CC1	-3	6	10	-1	2904	0.9	-26
O=C(O)c1cc2cc(Cl)cc(Cl)c2oc1=O	2	.	.	2	3780	6.7	-10
NC(=O)CNC(=O)c1ccc(Cl)cc1	1	-6	-8	-7	6277	1.0	-22
COc1ccc(NC(=O)CN(C)CC(=O)Nc2ccccc2SC)cc1	-1	0	10	2	2343	-2.9	-5
CCOc1cc(N2CCOCC2)c(OCC)cc1NC(=O)COC(=O)CCOc1ccc(C(C)(C)C)cc1	7	9	3	4	4978	3.1	-16
Cc1sc(NC(=O)/C=C/c2ccco2)c(C(=O)OC(C)C)c1C	.	.	.	10	2423	.	-8
COc1ccc(NC(=O)CSc2ccc(-c3sc(C)nc3C)nn2)cc1OC	-15	7	9	2	5596	13	-4
O=C(CSc1n[nH]c(-c2cccs2)n1)N1CCOCC1	0	4	6	.	3919	1.7	3
CC(C)[C@H](NC(=O)N1CC(=O)Nc2ccccc21)C(=O)N1CCC[C@H]1C(=O)O	-8	.	.	-7	5951	-1.6	-11
COc1ccc(-c2nnn(CC(=O)N(CC(=O)NCCC(C)C)c3ccccc3)n2)cc1OC	4	0	10	-7	21028*	-0.3	-2
Cc1nnc(SCC(=O)c2ccc(S(=O)(=O)N3CCOCC3)cc2)n1-c1ccccc1	-3	6	-2	4	24041*	3.0	-6
O=C(O)C1CC(=O)N(C2CCCCCC2)C1 (configuration not stated)	2	.	.	.	2757	-0.8	-19
COc1ccc(/C=C/CN2CCC(n3nccc3NC(=O)C3CCCC3)CC2)cc1	4	2	5	-3	6352	-3.7	-12
Cc1ccc(C(=O)Nc2nc(C)c(C(=O)Nc3ccc4c(c3)CCC4)s2)cc1	-17	5	4	20	2197	0.9	-115
O=C(NN=Cc1ccccc1Br)C1CC1	2	10	19	.	.	7.4	.
CCOc1ccc(N2CC(C(=O)Nc3ccccc3N3CCCC3)CC2=O)cc1 (configuration not stated)	.	.	.	1	?	.	2
COc1cccc(NC(=O)COc2ccc(S(=O)(=O)NC(C)C)cc2)c1	-7	.	.	.	2666	1.2	-16
COC(=O)C1C(c2ccccc2)C=CC(c2ccccc2)C1C(=O)O (configuration not stated)	-4	5	-2	-4	5197	4.1	-20
COc1cc(C(C)=O)ccc1OCC(=O)NCCCn1nc(C)cc1C	11	8	4	.	?	5.9	-9
Cc1nnc(C)c2c(C)n(C(c3ccccc3)c3ccccc3)c(C)c12	-9	8	8	6	11637	0.0	-5
Cc1ccccc1NC(=O)CCC(=O)N/N=C/c1cc([N+](=O)[O-])ccc1O	.	.	.	-3	2100	.	-6
COc1cc(/C=N/N2CCN(C3c4ccccc4-c4ccccc43)CC2)cc(OC)c1O	.	.	.	-8	2027	.	-37
COc1ccc(CCC(=O)Nc2ccccc2C(F)(F)F)cc1	6	-2	3	-11	1946	4.7	-15
O=C(NCc1ccco1)c1cc(-c2cccnc2)nc2ccc(Cl)cc12	6	.	.	9	2803	-1.3	-5
CC(=O)Cc1nsc(NC(=O)c2ccc(F)cc2)n1	-12	-7	5	1	4172	-3.7	2
CC1C(=O)C(C)C(c2ccc([N+](=O)[O-])cc2)NC1c1ccc([N+](=O)[O-])cc1 (configuration not stated)	2	8	-2	7	4621	-0.7	-18
O=C(Cc1cccs1)N1CCN(c2ccc(F)cc2)CC1	-6	.	.	6	2418	-13	-27
COc1cc(CN2CCC(n3nccc3NC(=O)c3ccccc3OC)CC2)ccc1F	4	5	13	3	6689	2.9	2
CC1CCN(CCC(=O)Nc2ccc(Br)cc2)CC1	0	4	-2	-4	6261	2.1	-5
Oc1ccccc1-c1cc(-c2ccc(Cl)cc2)n[nH]1	-2	-8	9	4	3060	-7.8	-71
CC(C)CCNC(=O)c1cc2c(=O)n3ccccc3nc2s1	1	-3	-3	-7	3416	2.5	.
CON=CCC(=O)Nc1ccc(F)cc1F	9	7	2	.	.	6.7	.
CCCCC1(C2CCCC2)NC(=O)NC1=O (configuration not stated)	1	13	9	.	3833	3.0	-29
CN1C/C(=C/c2ccncc2)C(=O)/C(=C/c2ccncc2)C1	3	-9	7	72*	3711	-0.9	-16
CCc1c(C(=O)c2ccc(Cl)cc2)oc2c(C)c3oc(=O)cc(C)c3cc12	14	15	-23	-6	.	-2.0	.
Cc1cccc(N(Cc2cc3cc(C)ccc3[nH]c2=O)C(=O)c2cccs2)c1	6	13	-1	2	4219	1.1	-16
CCN(CC)S(=O)(=O)c1ccc(NC(=O)CN(c2ccc(OC)cc2OC)S(C)(=O)=O)cc1	-2	6	8	7	7887	4.1	-2
Cc1ccccc1NS(=O)(=O)c1cccc(-c2nnc(-c3ccccc3)o2)c1	3	7	-1	0	?	9.2	-5
O=C(CN1C(=O)c2ccccc2S1(=O)=O)Nc1ccc(S(=O)(=O)N2CCCCCC2)cc1	3	4	5	-2	8233	4.2	-3
COc1ccc(S(=O)(=O)NNC(=O)Nc2ccc(F)cc2F)c(OC)c1	4	10	0	-3	4989	-0.8	-13
O=C(Oc1ccc2c(-c3ccccc3)cc(=O)oc2c1)C1CCCCC1	31	.	.	17	3713	-6.6	-9
Cc1ccccc1OCCC(=O)OCC(=O)NC1CCS(=O)(=O)C1 (configuration not stated)	5	11	0	-6	.	3.5	-10
CCC(C)N1CC(C(=O)O)CC1=O (configuration not stated)	4	5	5	-7	12315	1.0	-20
O=C(NNC1CC(=O)N(c2ccc(Cl)cc2)C1=O)c1ccco1 (configuration not stated)	0	12	10	11	4659	4.2	-6
CN(C)C=NC(=S)Nc1ccc(F)cc1	-2	-4	1	.	.	0.1	.
COc1ccccc1N1CCN(C(CNS(=O)(=O)c2cc(F)ccc2F)c2cccnc2)CC1 (configuration not stated)	.	.	.	1	3324	.	-15
CCCCN(C)Cc1c(C)[nH]c2ccc(OCC)cc2c1=O	1	7	3	-4	4088	1.5	15
C=CCSc1nnc2c(n1)OC(c1ccco1)Nc1ccccc1-2 (configuration not stated)	0	-8	4	-8	2005	2.0	-3
CCC(C)C(N)c1cn(C(CCCCN)C(=O)N2CCNCC2)nn1 (configuration not stated)	-5	3	0	.	.	6.4	.
COC(=O)c1sc(N2C(=O)C(O)=C(C(=O)c3ccc(C)o3)C2c2cccs2)nc1C (configuration not stated)	-1	1	0	-1	4004	2.0	-2
COc1ccc(C2(C)NC(=O)N(CC(=O)Nc3ccc4ccccc4c3)C2=O)cc1OC (configuration not stated)	-1	8	6	.	.	-1.4	5
Continued.
SMILES	ugtP null kill	Mtb hypoxia rep	Mtb hypoxia rep growth	BJeLR lethal	Bead autofluor	RN4220 kill	PrP UTR inh
C=CCOc1ccc(C(=O)Nc2ccc(OCC)cc2)cc1	7	9	8	14	2432	3.8	-28
O=C(O)c1cccc2c1/C(=N/Nc1ccc([N+](=O)[O-])cc1[N+](=O)[O-])c1ccccc1-2	.	.	.	-10	3586	.	-4
COc1ccc(Cn2nnnc2C(c2ccc(C)cc2)N2CCN(C3CCCC3)CC2)cc1 (configuration not stated)	6	.	.	-5	2840	0.0	-4
O=[N+]([O-])c1ccc2c(c1)C(N1CCOCC1)/C(=C/C1(O)CCCCC1)O2 (configuration not stated)	5	14	5	.	3274	0.6	-7
N=C(N)SCc1nc2ccccc2c(=O)n1-c1ccccc1	5&-8	-8&-2	0&0	-1	10973&8126	1.9&-1.5	-46&-6
Cc1nnc(SCC(=O)NNC(=O)c2ccc(Br)cc2)n1C	0	15	15	11	4865	3.2	-13
CCCCC(C(=O)O)C(C)CC(=O)Nc1nncs1 (configuration not stated)	4	12	-4	-2	4227	3.1	-34
C=CCN1C(=O)[C@]2(c3ccccc31)C1CCCC=C1C(C#N)=C(N)C2(C#N)C#N (some centres not stated)	-4	1	9	1	20366*	9.8	-27
CCC(=O)N1CCc2cc(S(=O)(=O)CCC(=O)Nc3cccc(C)n3)ccc21	1	-7	6	7	2151	4.1	-13
O=C(Cn1nc(-c2ccc3c(c2)OCCO3)ccc1=O)Nc1ccc(N2CCOCC2)cc1	-1	3	8	-7	.	3.9	.
CCC(C(=O)Nc1c2c(nn1C(C)(C)C)CS(=O)(=O)C2)c1ccccc1 (configuration not stated)	7	9	8	-7	5358	4.0	-22
Cc1cc(C)c(OCC(=O)Nc2ccc(N3CCOCC3)cc2)c(Br)c1	.	.	.	-6	6034	.	-18
COc1ccc(S(=O)(=O)N2CCN(c3nc4ccccc4nc3-n3nc(C)cc3C)CC2)cc1	-6	12	7	0	.	13	.
CNc1c([N+](=O)[O-])cnn1-c1ccc(F)cc1	4	4	7	-17	5195	4.7	-18
CC(CNc1ccccc1O)C(=O)O (configuration not stated)	0	9	20	-16	2509	5.5	-3
O=C(CC1C(=O)NCCN1Cc1ccc(-c2ccccc2)cc1)NCCOc1cccnc1 (configuration not stated)	4	4	-1	-12	2628	1.1	-17
COC(=O)c1c(NC(=O)CCNCc2ccco2)sc2c1CCC2	5	12	10	0	3683	3.2	-9
Cc1ccc(NC(=O)CSc2ncc(-c3ccccc3)n2C(=O)c2ccccc2)cc1	-3	1	1	-15	6096	5.7	-20
CCC1CCCCN1CCCNC(=O)C1CCC(Cn2c(=O)[nH]c3ccccc3c2=O)CC1 (configuration not stated)	-3	-5	13	-3	9814	2.1	-17
CC(C)=CCCC1(C)C=Cc2c(ccc3c2[nH]c2cc(O)c(C)cc23)O1 (configuration not stated)	96*	.	.	-3	5302	61	-8
Cc1ncsc1CCSc1nc2ccccc2c(=O)n1C	0	10	6	4	7750	7.3	14
Cc1cc(NC(=O)CCN2C(=O)/C(=C\c3ccccc3Cl)SC2=S)no1	-3	-12	9	-9	4435	3.8	0
CC(C)c1ccc(NC(=O)C(c2ccccc2)N2CCN(C=O)CC2)cc1 (configuration not stated)	8	.	.	-2	3798	-0.3	-26
